Compound activity from PubChem BioAssay.
KinaseGlo FLuc: Counterscreen for Luciferase (Kinase-Glo TM) Inhibition; Luciferin 4-monooxygenase (Photuris pensylvanica), Q27757; Kinase-Glo luciferase, ATP luminescence, 8 min; Potency, µM (top dose mostly 38.3 µM), without a hit: at the highest dose activity change, negative = inhibition, most hits filed as inhibitors; actives 0.28% (n = 200,000); AID 1379, 2008; also: % is scaled to controls: 0 for no effect and ±100 for the full control effect; nearly all actives have a fitted effect of over 60% in size
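Recombinant Kinase-Glo luciferase, 10 uM ATP (linear range), luciferin; imidazole pH 7.2 / KCl / MgCl2 / Tween / BSA buffer; 8 min RT; luminescence.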
LMNA splice mod: qHTS Assay for Modulators of Lamin A Splicing. HeLa LMNA splicing GFP/RFP minigene ratio, 48 h. Potency, µM (titrated, usually from 46.1 µM), inactives show at the top dose ratio change, negative = inhibition, usual class: inhibitors. actives 0.01% (n = 200,000). AID 1487, 2009; active = well fitted inhibition curve with a large enough effect in the signal ratio, with a control signal flat, not every such curve was filed as active; inconclusive = small, poorly fitted or top-dose-only effect, or effect the other way, or a change in a side signal; the % refers to the signal ratio; also: % is scaled to controls: 0 for no effect and ±100 for the full control effect
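Read-out is the ratio of GFP to DsRed2 object intensity, acquired by 488 nm laser-scanning cytometry on HeLa lamin A-EGFP minigene reporter cells. Compound incubation 48 hrs at 37 °C in Opti-MEM with 2% FBS; DMSO 0.5% final.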
KDM4E inh: qHTS Assay for Inhibitors of Human Jumonji Domain Containing 2E (JMJD2E); JMJD2E catalytic domain, FDH-coupled NADH fluorescence (FDH is formaldehyde dehydrogenase); Potency, µM (top dose mostly 57.1 µM), for the others: at the top dose activity change, negative = inhibition, hits mostly inhibitors; actives 1.6% (n = 230,000); active = well fitted inhibition curve with a large enough effect, not every such curve was filed as active; inconclusive = small, poorly fitted or top-dose-only effect, or another doubt; inactive = no such curve, though single readings can be large or run the other way;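 also: 0% = wells with enzyme and -100% = buffer wells without enzyme; nearly all actives have a fitted effect of over 50% in size; many of its hits are not listed in these tables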
Target sequence (B2RXH2 1-337 limits assumed): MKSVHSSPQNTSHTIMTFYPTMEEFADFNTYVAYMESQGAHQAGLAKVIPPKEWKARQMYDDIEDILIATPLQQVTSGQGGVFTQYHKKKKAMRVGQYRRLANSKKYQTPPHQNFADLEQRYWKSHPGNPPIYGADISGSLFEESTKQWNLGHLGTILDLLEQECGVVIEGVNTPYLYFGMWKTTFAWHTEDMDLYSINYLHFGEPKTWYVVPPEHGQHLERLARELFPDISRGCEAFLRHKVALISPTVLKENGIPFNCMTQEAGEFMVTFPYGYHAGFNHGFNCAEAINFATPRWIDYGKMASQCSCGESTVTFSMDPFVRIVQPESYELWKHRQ
Tau fibril ThT: qHTS for Inhibitors of Tau Fibril Formation, Thioflavin T Binding; actives 2.1% (n = 270,000); Potency, µM (doses to about 57.4 µM), inactives show at the top dose activity, negative = inhibition, usual class: inhibitors; recombinant tau K18 P301L (four-repeat tau fragment), heparin-induced fibrillization, ThT fluorescence; also: % is scaled to controls: 0 for no effect and ±100 for the full control effect; nearly all actives have a fitted effect of over 55% in size
Target sequence (P10636 561-689 P618L limits assumed): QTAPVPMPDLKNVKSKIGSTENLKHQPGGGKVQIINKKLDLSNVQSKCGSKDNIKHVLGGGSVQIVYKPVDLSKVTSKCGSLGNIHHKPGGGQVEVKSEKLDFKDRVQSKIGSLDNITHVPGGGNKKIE
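Recombinant human tau K18 fragment […] carrying P301L, 15 uM unlabeled plus 0.24 uM Alexa 594-labeled, was fibrillized with 20 uM heparin in 100 mM sodium acetate pH 7 for 6 hr at 37 C; 30 uM ThT fluorescence read after 1 hr.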
L3MBTL1 block: qHTS Assay for the Inhibitors of L3MBTL1; AlphaScreen L3MBTL1–H3K9me1 peptide binding; actives 0.66% (n = 230,000); Potency, µM (highest dose often 57.1 µM), inactives show at the top dose activity, negative = inhibition, actives largely listed as inhibitors; also: % is scaled to controls: 0 for no effect and ±100 for the full control effect; nearly all actives have a fitted effect of over 60% in size
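AlphaScreen proximity signal between nickel-chelate acceptor and streptavidin donor beads (final 10 ug/mL) reports binding of 50 nM L3MBTL1 to 75 nM biotin-H3 K9me1 peptide; complex incubated with compounds 30 min at room temperature; cefsulodin titration as control.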
RECQ1 inh: qHTS Assay for Inhibitors of RecQ-Like Dna Helicase 1 (RECQ1). ATP-dependent DNA helicase Q1 (Homo sapiens), P46063. Potency, µM (highest dose often 57.3 µM), for the others: top-dose activity, negative = inhibition, usual class: inhibitors. RECQ1 DNA unwinding, red fluorescence kinetic read. actives 0.54% (n = 240,000);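 also: plate controls were vehicle for no effect and no enzyme for full effect; nearly all actives have a fitted effect of over 30% in size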
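50 nM RECQ1T1 preincubated 15 min with compound in Tris pH 8.0 buffer with MgCl2, DTT, Tween-20 and 2.5 ug/ml poly(dI-dC); started with 200 nM TAMRA/BHQ-2 forked duplex and 2 mM ATP. Unwinding read as fluorescence (525/598 nm), two reads 2 h apart.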
SMN2 splice up: qHTS Assay for Enhancers of SMN2 Splice Variant Expression | actives 2.8% (n = 210,000) | HEK293 SMN2-luciferase splicing reporter, luminescence, 30-36 h | Potency, µM (highest dose often 46.1 µM), for the others: at the top dose activity change, positive = activation, most hits filed as activators; also: % of control where 0% means no effect; nearly all actives have a fitted effect of over 55% in size
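qHTS luciferase splicing reporter: luminescence rises when SMN2 exon 7 is included in transfected HEK293 cells. Compound exposure lasted 30-36 h at 37C, with 4.5 mM final sodium butyrate as control, followed by a ONE-Glo read.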
Starred values were filed as active, the others as inactive; i = inactive; u = inconclusive; x = not tested or not shown; & = joins results of further samples; [ ] = another dose, or the depositor's remark. Unless noted, calls follow the shape of the dose curve; as a rule, active = well fitted curve in the direction sought with a large enough effect; inconclusive = small, poorly fitted or top-dose-only effect, or another doubt; inactive = no such curve, though single readings can be large; an effect the other way counts as inactive or inconclusive. Potency is read from the fitted curve at half-maximal effect. Only part of the results is shown; the hit share may differ from the screen's.

Structure | SMN2 splice up | KDM4E inh | KinaseGlo FLuc | L3MBTL1 block | Tau fibril ThT | LMNA splice mod | RECQ1 inh
CNC(=O)c1cc(Nc2nnc(C)c3ccccc23)ccc1OC | 22% | -1% | -2% | x | -13% | -12% | i
CC(C)N1CCN(Cc2nc(-c3ccccc3)cs2)CC1CCO (stereo unspecified) | x | 1% | x | 5% | 2% | x | i
CCOc1ccc(S(=O)(=O)Nc2cccnc2)cc1 | -19% | 6% | 13% | 0% | 0% | u | 6%
Nc1ncccc1OCc1cccc(C(F)(F)F)c1 | -23% | -12% | 2% | 28% | -6% | x | -5%
COc1ccc(NC(=O)CCN2CCOCC2)c(OC)c1 | x | 8% | -4% | 53%[activator] | 4% | x | 6%
Cc1cc(NC(=O)c2ccc(Br)cc2)nc(C)n1 | x | 4% | -6% | 1% | -6% | x | -4%
COc1cc(S(=O)(=O)NCC2OCCc3ccccc32)ccc1-n1cnnn1 (stereo unspecified) | -8% | -3% | 2% | x | -7% | -15% | 9%
Cc1ccc2nc(NC3=NCN(C4CCCCC4)CN3)nc(C)c2c1 | -9% | -1% | -3% | 2% | 5% | 1% | -3%
COc1cccc2sc(N(CCCN(C)C)C(=O)COc3ccc(Cl)cc3)nc12 | -27% | -2% | -3% | x | -8% | 6%[9.22 µM] | -13%
CCCc1c(C(=O)N2CCN(c3ccccc3OC)CC2)cnn1-c1ccccc1 | x | 7% | x | -15% | 2% | x | 8%
O=C(/C=C/c1ccco1)c1ccccc1O | x | -18% | -11% | -9% | u | 6%[46 µM] | 14%
Cc1cccc(NC(=O)C(C)n2cc([N+](=O)[O-])cn2)n1 (stereo unspecified) | -24% | 8% | 1% | x | -5% | u | -5%
O=S1(=O)C=C(SCCN2CCCCC2)c2ccccc21 | 23% | 3% | 8% | -7% | -7% | 1% | -9%
Nc1c(C(=O)NCc2ccco2)nnn1CC(=O)Nc1ccccc1 | 3% | -4% | -6% | x | -1% | 6% | i
CCCOC(=O)/C(C(N)=NCc1ccccc1)=C(\O)OCCC | -13% | -1% | 1% | -3%[11.4 µM] | -2% | u | -7%
CN(C)CCC(=O)NCC1OCCc2ccccc21 (stereo unspecified) | 3% | -1% | -5% | x | -10% | 20% | -8%
O=C(/C=C/c1ccccc1)CC(=O)c1ccccc1O | x | u | x | -27% | 13µM* | x | -2%
CCOc1ccc(C(=O)NC2CCN(S(=O)(=O)CC)CC2)cc1 | 1% | 1% | -2% | -4% | 3% | 0% | 3%
O=C(c1ccc(F)cc1)c1c[nH]c(C(=O)NCc2cccnc2)c1 | -29% | -1% | 0% | 1% | -1% | -26% | 3%
Cc1ccc(C2(c3noc(CN4C[C@@H](C)O[C@@H](C)C4)n3)CCCC2)cc1 | x | -3% | x | 3% | 3% | x | i
Cc1cc(S(=O)(=O)NC2CCCCC2)ccc1OCC(=O)N1CCOCC1 | -8% | 9% | -1% | x | 0% | 4% | 6%
S=C1N(c2ccccc2)C(c2ccc(Cl)cc2)N2CCCN12 (stereo unspecified) | 13% | 10% | -3% | -1% | 3% | -14% | i
Cn1c(-c2ccccc2)cc2c3no[n+]([O-])c3ccc21 | -80%[inhibitor] | 4% | 4% | -8% | u | u | -3%
COC(CN1C(=O)C(=O)/C(=C(/O)c2ccccc2)C1c1ccccn1)OC (stereo unspecified) | x | -8% | 1% | -2% | -6% | 9%[46 µM] | i
CCCOc1ccc(C(=O)NCCCn2ccnc2)cc1 | 12% | 5% | -4% | -5% | 10% | 2% | 2%
COCCNS(=O)(=O)c1ccc(-c2ccc(Cl)cc2)cc1 | x | -17% | -2% | 3% | -13% | 19%[46 µM] | -11%
CCOC(=O)c1ccc(NC(=O)CN(C)S(=O)(=O)c2ccc(OC)cc2)cc1 | -18% | -16% | 3% | x | -5% | 0% | -4%
CC(=O)c1ccc(NC(=S)N2CCCCCC2)cc1 | u | 2% | 1% | 5%[11.4 µM] | -7% | 13%[46 µM] | i
C#CCNC(=O)C1=C[C@@H](C2CCCCC2)C[C@@H](OCc2ccc(CO)cc2)O1 | x | -5% | x | -3% | -9% | x | -9%
COc1ccccc1NC(=O)c1csc(-n2nc(C)cc2C(F)(F)F)n1 | -20% | 4% | -1% | -2% | -12% | -2% | 13%

Continued; it opens with the five that closed the last part.
Structure | SMN2 splice up | KDM4E inh | KinaseGlo FLuc | L3MBTL1 block | Tau fibril ThT | LMNA splice mod | RECQ1 inh
COCCNS(=O)(=O)c1ccc(-c2ccc(Cl)cc2)cc1 | x | -17% | -2% | 3% | -13% | 19%[46 µM] | -11%
CCOC(=O)c1ccc(NC(=O)CN(C)S(=O)(=O)c2ccc(OC)cc2)cc1 | -18% | -16% | 3% | x | -5% | 0% | -4%
CC(=O)c1ccc(NC(=S)N2CCCCCC2)cc1 | u | 2% | 1% | 5%[11.4 µM] | -7% | 13%[46 µM] | i
C#CCNC(=O)C1=C[C@@H](C2CCCCC2)C[C@@H](OCc2ccc(CO)cc2)O1 | x | -5% | x | -3% | -9% | x | -9%
COc1ccccc1NC(=O)c1csc(-n2nc(C)cc2C(F)(F)F)n1 | -20% | 4% | -1% | -2% | -12% | -2% | 13%
COc1cccc(Nc2nnc(SCC(=O)N3CCOCC3)s2)c1 | -8% | -5% | -9% | 2% | 4% | -1% | -13%
CC1CCCCN1C/C=C/c1ccccc1[N+](=O)[O-] (stereo unspecified) | 3% | 3% | 0% | -5% | 4% | 7% | -3%
O=C(NCc1cccs1)c1cc(-c2ccncc2)nc2ccc(Br)cc12 | 2% | -10% | -1% | -6% | -16% | u | i
CC1CCCC(NC(=O)COC(=O)c2ccc3ccccc3n2)C1C (stereo unspecified) | 5% | 0% | -5% | x | 1% | 10% | -12%
O=C(OCC(=O)N1CCN(C(=O)c2ccco2)CC1)c1ccccc1C(=O)c1ccc(Cl)cc1 | 1% | 1% | -7% | 2% | -17% | -10% | 0%
COc1ccc(-c2nn3c(-c4ccccn4)nnc3s2)cc1OC | 8% | u | 2% | 0% | -17% | -13% | -4%
Cc1cccc(C(=O)Nc2ccnc(-c3ccncc3)n2)c1 | -5% | -3% | -1% | 25% | -12% | 26%[46 µM] | 0%
COCCCNC(=O)c1ccc(Cn2c(=O)c3ccccc3n(Cc3cc(C)ccc3C)c2=O)cc1 | 18% | -2% | 20% | x | -15% | 8% | 11%
COc1ccc(NC(=O)N2CC3(CCN(C(C)=O)CC3)C2)cc1 | -2% | x | -2% | x | x | x | -8%
Cc1cc(-c2nnc(SCc3cccnc3)o2)no1 | -9% | 0% | 1% | 2% | 3% | 13% | -9%
COc1cc2c(cc1OC)C1Cc3ccc(OC)c(OC)c3CN1CC2 (stereo unspecified) | -30%&-10% | -20%&-9% | -1%&-3% | -6% | -12%&-13% | u | 7%&11%
CCCCS(=O)(=O)C1CCS(=O)(=O)C1 (stereo unspecified) | -24% | 6% | -4% | 0% | -5% | 0% | -2%
Cc1noc(C)c1C(=O)N1CCN(S(=O)(=O)c2ccc(F)cc2)CC1 | 9% | 7% | 4% | -4% | -2% | x | -4%
CCN(CC)CCn1c(NCc2cccc(OC)c2OC)nc2ccccc21 | 19% | 4% | 3% | x | 2% | -1% | i
CCOC(=O)c1c(C)[nH]c(O)c1C=Nc1ccccc1 | -8% | -11% | -7% | -9% | u | 9% | -7%
COc1ccc(CCNC(=O)COc2ccc(-c3ccc(C)cc3)cc2)cc1OC | x | -1% | x | -2% | -10% | u | -5%
CN(C)Cc1cc(C(C)(C)c2cc(CN(C)C)c(O)c(CN(C)C)c2)cc(CN(C)C)c1O | -4% | 7% | 3% | 17% | -8% | -13% | -3%
CCC(c1nnnn1Cc1ccc2c(c1)OCO2)N1CCN(c2ccc(OC)cc2)CC1 (stereo unspecified) | -7% | -10% | -2% | -28% | -9% | u | i
COc1ccc(C2CCCN2C(=O)Nc2ccccc2)cc1OC (stereo unspecified) | -19% | -2% | 0% | x | -9% | 3% | -8%
CS(=O)(=O)N(CC(=O)NCC1CCCO1)c1cccc(Cl)c1 (stereo unspecified) | x | -22% | -2% | 5% | 5µM* | u | -12%
COC(=O)CC1COc2ccccc2N1C(=O)c1ccc(OC)cc1 (stereo unspecified) | -6% | 3% | 0% | -2% | -5% | 5% | -5%
CCCOc1ccccc1NC(=O)c1ccc(N)cc1 | 1% | 6% | -2% | 7%[11.4 µM] | -15% | 2% | 5%
N#Cc1c(N)nc(N)nc1Nc1ccc(Br)cc1 | x | -16% | x | 1% | 18% | u | 4%
CCOC(=O)CSC1=NC(=O)/C(=C/c2ccc(Br)cc2)S1 | x | 2% | x | x | u | x | -5%
Cc1ccc(/C=C(\NC(=O)c2ccccc2)C(=O)NCC2CCCO2)o1 (stereo unspecified) | 1% | -9% | 0% | 3% | 0% | 5%[46 µM] | 25%
COCCNC(=S)NNC(=O)c1ccc(-n2cnnn2)cc1 | -4% | u | 2% | 9% | -8% | -8%[46 µM] | i
O=C(COC(=O)COc1cccc(F)c1)NCCC1=CCCCC1 | 6% | 0% | 0% | x | -12% | x | -5%
CCOc1ccc(N/C(SCc2cccc([N+](=O)[O-])c2)=C(/C#N)C(N)=O)cc1 | x | -28% | 2% | x | u | 2%[46 µM] | i
COc1cc(/C=N/O)c(Br)cc1OCC(=O)Nc1ccccc1C | 0% | 9% | -2% | 1% | -5% | u | i
CC(=O)c1ccc(-n2nncc2C(C)(C)C)cc1 | -3% | -6% | -2% | 4% | 4% | 8% | i
C=CCN1C(=O)CN=C1Nc1cc(C)cc(C)c1 | -9% | -11% | -5% | -4% | -3% | u | i
CC(NC(=O)NCc1cccnc1)(C(F)(F)F)C(F)(F)F | x | 3% | x | -9% | -2% | -3% | -2%
COc1ccc(NC(=O)CSc2nc3ccccc3c(=O)n2CCNC(C)=O)c(OC)c1 | -6% | -11% | -5% | 2% | -6% | 2% | -1%
O=C(Nc1cc(=O)[nH]c2ncnn12)c1ccc(Cl)cc1Cl | -7% | -6% | -4% | 12% | -10% | 5% | -8%
